Vaccinia Venus: qHTS for Stage-Specific Inhibitors of Vaccinia Orthopoxvirus: Venus Reporter Primary qHTS. 330,000 compounds, 0.46% hits. Vaccinia virus Venus reporter expression, fluorescence. Potency, µM (highest dose often 36.5 µM), for inactives: at the top dose activity change, negative = inhibition, most hits filed as inhibitors; active means well fitted inhibition curve with a large enough effect; inconclusive means small, poorly fitted or top-dose-only effect; inactive means no such curve, though single readings can be large or run the other way; tested in A549 cells; note: nearly all actives have a fitted effect of over 30% in size; inactives centre near -10
Vaccinia mCherry: qHTS for Stage-Specific Inhibitors of Vaccinia Orthopoxvirus: mCherry Reporter Primary qHTS | Vaccinia virus mCherry reporter infection, fluorescence; about a quarter of the inactives have no number | Potency, µM (series often up to 36.5 µM), for inactives: at the top dose activity change, negative = inhibition, most hits filed as inhibitors | 310,000 compounds, 0.63% hits; active = well fitted inhibition curve with a large enough effect; inconclusive = small, poorly fitted or top-dose-only effect; inactive = no such curve, though single readings can be large or run the other way; tested in A549 cells; note: nearly all actives have a fitted effect of over 35% in size; inactives centre near -10
The depositor's hits bear a star; & = joins results of further samples; [ ] = remark or other dose. % is set by controls: 0 for no effect and ±100 for the full control effect; potency is the fitted concentration of half-maximal effect.

For CN(C)S(=O)(=O)c1ccc(C(=O)Oc2ccccc2)cc1 the results were Vaccinia Venus -18%.
`CN1CCN(CCc2nc3cc(NC(=O)COc4ccc(Cl)cc4)ccc3n2C)CC1` gave Vaccinia Venus -25% and Vaccinia mCherry -17%.
Screening COc1cccc(N2C(=O)C(Cc3c[nH]c4ccccc34)NC2=S)c1 (centres undefined) returned Vaccinia Venus 2% and Vaccinia mCherry -6%.
Screening COc1ccc([C@H]2C[C@H](n3cc(COC(=O)c4ccccc4)nn3)[C@@H](O)CN2C(=O)c2cccs2)cc1 returned Vaccinia Venus -6% and Vaccinia mCherry inactive.
Screening NC(=O)N/N=C\c1cc(Br)ccc1O returned Vaccinia Venus -17% and Vaccinia mCherry -13%.
For Cn1ccc2c(-c3cccc4ccccc34)cc3c(c21)C1CCC3C1 (centres undefined) the results were Vaccinia Venus -3% and Vaccinia mCherry -5%.
C=C(C)Cn1c(C2CC(=O)N(Cc3ccccc3)C2)nc2ccccc21 (centres undefined) was read as Vaccinia Venus -7% and Vaccinia mCherry inactive.
Screening CCN1CCC(N(Cc2ccc3c(c2)OCO3)C(=O)Nc2cc(Cl)ccc2C(=O)OC)CC1 returned Vaccinia Venus inconclusive and Vaccinia mCherry -21%.
`CN(C)c1ccc(CNC(=O)CN(C)S(=O)(=O)c2ccc3c(c2)c(=O)n(C)c(=O)n3C)cc1` gave Vaccinia Venus 0% and Vaccinia mCherry -5%.
Screening O=C1CCN(S(=O)(=O)c2ccccc2)CCN1CCOCc1cccc(F)c1 returned Vaccinia Venus -2% and Vaccinia mCherry -7%.
COc1ccc(NC(=O)Cn2nc(C(=O)O)c3ccccc3c2=O)cc1OC was read as Vaccinia Venus -3% and Vaccinia mCherry -13%.
`Cc1ccc(S(=O)(=O)N2[C@@H](CO)CO[C@H]2CC(=O)OCc2ccccc2)cc1` gave Vaccinia Venus -5% and Vaccinia mCherry -22%.
Screening CCc1ccc(NC(=O)C(C)OC(=O)/C=C/c2ccc(O)c(OC)c2)cc1 (centres undefined) returned Vaccinia Venus -20% and Vaccinia mCherry -30%.
Screening O=C(CN1CCCC1)Nc1ccc(OC(F)(F)F)cc1 returned Vaccinia Venus -19% and Vaccinia mCherry -12%.
`O=C(Nc1nnc(S(=O)(=O)N2CCCC2)s1)c1ccccc1Br` gave Vaccinia Venus -9%&-1% and Vaccinia mCherry -10%&-3%.
CCN1C(=O)[C@@H]2[C@@H](c3ccc(-c4ccc(Cl)c(Cl)c4)cc3)N3CCC[C@@]3(C(=O)OC)[C@@H]2C1=O was read as Vaccinia Venus inconclusive and Vaccinia mCherry -7%.
`O=C(O)c1ccc(Cl)c(S(=O)(=O)Nc2ccccc2Cc2ccccc2)c1` gave Vaccinia Venus -13% and Vaccinia mCherry -12%.
For CN(C)NC(=S)NC(=O)C12CC3CC(CC(C3)C1)C2 the results were Vaccinia Venus -10% and Vaccinia mCherry inactive.
Screening COc1ccc(CCNC(=O)c2cc3c(cc2Cl)N2CCCCCC2=NS3(=O)=O)cc1 returned Vaccinia Venus -26% and Vaccinia mCherry -6%.
`CCOc1ccc(C2c3[nH]c4ccccc4c3CCN2Cc2cccn2-c2ncccn2)cc1` (centres undefined) gave Vaccinia Venus -4% and Vaccinia mCherry inconclusive.

Fetched by structure from above:
Screening NC(=O)N/N=C\c1cc(Br)ccc1O returned Vaccinia Venus -17% and Vaccinia mCherry -13%.
`O=C(O)c1ccc(Cl)c(S(=O)(=O)Nc2ccccc2Cc2ccccc2)c1` gave Vaccinia Venus -13% and Vaccinia mCherry -12%.
COc1ccc(NC(=O)Cn2nc(C(=O)O)c3ccccc3c2=O)cc1OC was read as Vaccinia Venus -3% and Vaccinia mCherry -13%.
Screening CCN1CCC(N(Cc2ccc3c(c2)OCO3)C(=O)Nc2cc(Cl)ccc2C(=O)OC)CC1 returned Vaccinia Venus inconclusive and Vaccinia mCherry -21%.

The main list resumes, repeating the 3 entries before the break.
For CN(C)NC(=S)NC(=O)C12CC3CC(CC(C3)C1)C2 the results were Vaccinia Venus -10% and Vaccinia mCherry inactive.
Screening COc1ccc(CCNC(=O)c2cc3c(cc2Cl)N2CCCCCC2=NS3(=O)=O)cc1 returned Vaccinia Venus -26% and Vaccinia mCherry -6%.
`CCOc1ccc(C2c3[nH]c4ccccc4c3CCN2Cc2cccn2-c2ncccn2)cc1` (centres undefined) gave Vaccinia Venus -4% and Vaccinia mCherry inconclusive.
For COc1ccc2[nH]c(=O)c(CN(Cc3cccs3)C(=S)Nc3cccc(C)c3)cc2c1 the results were Vaccinia Venus -12% and Vaccinia mCherry -15%.
For CCn1cc(CN2CCN(C)C(CCO)C2)c2ccccc21 (centres undefined) the results were Vaccinia Venus 3% and Vaccinia mCherry inactive.
`CC1CCCCN1CCCNC(=O)c1ccc2nc(N3CCCCC3)sc2c1` (centres undefined) gave Vaccinia Venus -13% and Vaccinia mCherry -3%.
Cc1ccc(-n2c(-c3cccc(C)c3)nc3c(cnn3-c3ccccc3)c2=O)cc1 was read as Vaccinia Venus -12% and Vaccinia mCherry -15%.
`CC(C)N(C(=S)Nc1cccc(C(F)(F)F)c1)C(C)c1ccccn1` (centres undefined) gave Vaccinia Venus -26% and Vaccinia mCherry -15%.
`CCOC(=O)C1=C(C)NC(=O)NC1c1cc(C)sc1C` (centres undefined) gave Vaccinia Venus -9%.
`O=c1[nH]c(SCc2ccc(F)cc2)nc2c1cnn2-c1ccc(F)cc1` gave Vaccinia Venus -15% and Vaccinia mCherry inactive.
For C/C(=N\OC(=O)Nc1ccc(Cl)cc1)c1ccc(F)c(F)c1 the results were Vaccinia Venus -16% and Vaccinia mCherry -18%.
For COc1ccc(CC(=O)Oc2ccccc2Cl)cc1S(=O)(=O)N1CCOCC1 the results were Vaccinia Venus -14% and Vaccinia mCherry -24%.
`CCOC(=O)c1cc(S(=O)(=O)Nc2cc(C)c(Cl)cc2OC)[nH]n1` gave Vaccinia Venus -21% and Vaccinia mCherry -23%.
`COc1ccccc1-c1cnc(C(O)c2ccc(F)c(F)c2)[nH]1` (centres undefined) gave Vaccinia Venus 5% and Vaccinia mCherry 19%.
`O=C(Nc1ccn(CCCN(CCCn2ccc(NC(=O)OCc3ccccc3)nc2=O)CCc2cc3ccccc3[nH]2)c(=O)n1)OCc1ccccc1` gave Vaccinia Venus -15% and Vaccinia mCherry inactive.
`O=C(NCc1ccco1)C1CCCN1C(=O)Nc1ccccc1Cl` (centres undefined) gave Vaccinia Venus 1% and Vaccinia mCherry inactive.
Screening CCCNC(=O)Cn1nc(-c2ccc(C)c(C)c2)c2cnc3ccc(F)cc3c21 returned Vaccinia Venus -2% and Vaccinia mCherry -11%.
CCOC(=O)C1CCN(Cc2nc3ccccc3c(=O)n2-c2ccc(F)cc2)CC1 was read as Vaccinia Venus -29% and Vaccinia mCherry -14%.
For CCC1(CCc2ccncc2)C(=O)NC(=O)NC1=O the results were Vaccinia Venus -4% and Vaccinia mCherry -12%.
For Cc1nc(NC(=O)c2ccccc2)sc1-c1csc(NCc2ccco2)n1 the results were Vaccinia Venus -18% and Vaccinia mCherry -12%.
COc1ccc([N+](=O)[O-])cc1N(CC(=O)NC1CCCC1)S(C)(=O)=O was read as Vaccinia Venus 1% and Vaccinia mCherry -7%.
`Nc1ccc(Cc2ccc(N)c(O)c2)cc1O` gave Vaccinia Venus -4% and Vaccinia mCherry -2%.
`CC(=O)Nc1ccc(S(=O)(=O)NC(C)C(=O)NC(C)c2ccccc2)cc1` (centres undefined) gave Vaccinia Venus -5% and Vaccinia mCherry -5%.
O=C(COC(=O)c1ccccc1)NCCC1=CCCCC1 was read as Vaccinia Venus 2% and Vaccinia mCherry inactive.
`O=C(NCc1cccnc1)Nc1cccc(NC(=O)NCc2cccnc2)c1F` gave Vaccinia Venus 6% and Vaccinia mCherry 8%.
Cn1c(=O)c2c(nc(SCc3ccccc3F)n2C)n(C)c1=O was read as Vaccinia Venus -7% and Vaccinia mCherry -13%.
`CSc1nc(C(=O)N2CCOc3ccc(CN4CCN(Cc5ccccn5)CC4)cc3C2)cs1` gave Vaccinia Venus 1% and Vaccinia mCherry -11%.
`O=C(O)/C=C/C(=O)Nc1cccnc1` gave Vaccinia Venus 0% and Vaccinia mCherry -10%.
O=C(NCC(c1ccco1)N1CCc2ccccc2C1)C(=O)Nc1ccc(F)cc1F (centres undefined) was read as Vaccinia Venus -14% and Vaccinia mCherry -7%.
Cc1cc(C)n(CC(=O)n2nc(C)cc2C)n1 was read as Vaccinia Venus -10% and Vaccinia mCherry -13%.
Cc1cc(C)c2c(N)c(C(=O)NN)sc2n1 was read as Vaccinia Venus -11% and Vaccinia mCherry inconclusive.
NC(=O)CN1C(=O)/C(=c2\sc3nc(=O)c(Cc4ccccc4)nn3c2=O)c2ccccc21 was read as Vaccinia Venus -12% and Vaccinia mCherry -1%.
COC(=O)C1=C(C)NC(=O)CC1c1ccccc1 (centres undefined) was read as Vaccinia Venus -3%.
For O=c1c(N2CCN(c3cccc(Cl)c3)CC2)csc2ccc(Cl)cc12 the results were Vaccinia Venus -11% and Vaccinia mCherry -6%.
For CN(C)C(=O)Cn1c(SCC(=O)N2CCCc3ccccc32)nc2ccccc21 the results were Vaccinia Venus -12% and Vaccinia mCherry -3%.
`O=C1NC[C@@H](Cc2cccc3ccccc23)N(CCc2cccc(F)c2)C1=O` gave Vaccinia Venus -13% and Vaccinia mCherry -7%.
COc1ccc(N2CCN(C(=O)c3ccccc3N(C)S(=O)(=O)c3ccccc3)CC2)cc1 was read as Vaccinia Venus -22% and Vaccinia mCherry -11%.
For Cc1ccsc1-c1nc(CSCC(=O)NCc2ccc3c(c2)OCO3)c(C)o1 the results were Vaccinia Venus -20% and Vaccinia mCherry -26%.
`O=C(NCc1cccnc1)c1cc(C2CCCCN2C(=O)OCc2ccccc2)on1` (centres undefined) gave Vaccinia Venus -8% and Vaccinia mCherry 22%.
CC(C)=CCOc1cc2oc(=O)ccc2cc1O was read as Vaccinia Venus -5% and Vaccinia mCherry -16%.
For CS(=O)(=O)c1ccc2nc(NC(=O)C3COc4ccccc4O3)sc2c1 (centres undefined) the results were Vaccinia Venus -12% and Vaccinia mCherry -15%.
Cc1ccc(S(=O)(=O)N(CC(=O)O)c2ccc(Cl)c(C(F)(F)F)c2)cc1 was read as Vaccinia Venus -2% and Vaccinia mCherry -3%.
For O=C(O)C1CC=CCC1C(=O)Nc1ccccc1C(=O)N1CCN(c2ccc(F)cc2)CC1 (centres undefined) the results were Vaccinia Venus -9% and Vaccinia mCherry -12%.
For O=C1CSC(c2ccccc2)N1c1cccnc1 (centres undefined) the results were Vaccinia Venus 1% and Vaccinia mCherry -10%.
Screening Cc1cc(C(=O)COC(=O)Cc2n[nH]c(=O)c3ccccc23)c(C)n1-c1ccc2c(c1)OCO2 returned Vaccinia Venus -12% and Vaccinia mCherry inconclusive.
For O=C(C1=C[C@H](C2CC2)C[C@H](OCCCCO)O1)N1CCOCC1 the results were Vaccinia Venus -16% and Vaccinia mCherry -5%.
For CC1CC(NC(=S)N(C)C)CC(C)(C)C1 (centres undefined) the results were Vaccinia Venus -5% and Vaccinia mCherry inactive.
Cc1ccsc1C(=O)OCC(=O)N1CC(C)CC(C)C1 (centres undefined) was read as Vaccinia Venus -4% and Vaccinia mCherry inactive.
Cc1cc(C(=O)CC#N)c(C)n1-c1ccc(OC(F)F)cc1 was read as Vaccinia Venus -22% and Vaccinia mCherry -5%.
For Cc1c(N=Cc2ccco2)c(=O)n(-c2ccccc2)n1C the results were Vaccinia Venus 39%[activator].
COC(=O)C1CCN(C(=O)c2ccc(OC)c(S(=O)(=O)N3CCCc4ccccc43)c2)CC1 was read as Vaccinia Venus -8% and Vaccinia mCherry inactive.
`O=C(CC[C@H]1O[C@@H](n2cnc3c(NC(=O)c4ccccc4)ncnc32)[C@H](O)[C@@H]1O)NCCc1cc2ccccc2[nH]1` gave Vaccinia Venus -4% and Vaccinia mCherry 1%.
CCCN=C(C)C1=C(O)c2ccccc2C1=O was read as Vaccinia Venus -4% and Vaccinia mCherry 0%.
For CC1CCN(C(=O)Cn2ncc3c4ccccc4n(C)c3c2=O)CC1 the results were Vaccinia Venus -17% and Vaccinia mCherry 6%.
C[C@H](CO)N1C[C@H](C)[C@@H](CN(C)S(=O)(=O)c2cccs2)Oc2ccc(NC(=O)c3ccncc3)cc2C1=O was read as Vaccinia Venus -3% and Vaccinia mCherry inactive.
Screening Cc1cc[n+](-c2ccccc2)c2ccccc12 returned Vaccinia Venus -8% and Vaccinia mCherry inactive.
`CC(NC(=O)c1sc2ncccc2c1-n1cccc1)c1ccccc1` (centres undefined) gave Vaccinia Venus -4% and Vaccinia mCherry -3%.
CCCCOC(=O)c1cccc(NC(=O)/C=C/c2ccccc2Cl)c1 was read as Vaccinia Venus -22% and Vaccinia mCherry -21%.
COc1ccc(C(CNC(=O)c2cccc(NS(=O)(=O)c3ccc(Br)cc3)c2)N(C)C)cc1 (centres undefined) was read as Vaccinia Venus -25% and Vaccinia mCherry inconclusive.
Screening Cc1ccc(C(=O)Nc2ccc(Br)cc2)cc1S(=O)(=O)N1CCOCC1 returned Vaccinia Venus -16% and Vaccinia mCherry -19%.
COc1cc([N+](=O)[O-])ccc1NC(=O)/C=C\C(=O)O was read as Vaccinia Venus -8% and Vaccinia mCherry inactive.
`O=S(=O)(NCCCc1ccccc1)c1ccccc1` gave Vaccinia Venus -10%.
`Cc1ccc(C)c(N2CCN(C(=O)CN3CCSc4ccccc43)CC2)c1` gave Vaccinia Venus -2% and Vaccinia mCherry -10%.

Assay outcomes deposited in PubChem BioAssay by National Center for Advancing Translational Sciences (NCATS).
